Source: PubChem BioAssay
miR-21 FLuc – raises the signal of a miR-21 reporter. Potency, µM (series often up to 38.3 µM), for inactives: at the highest dose reporter change, positive = more light. HeLa miR-21 FLuc reporter, luciferase, 48 h. 340,000 tested, under 10 active; active = well fitted rising curve with a large enough effect; inconclusive = small, poorly fitted or top-dose-only effect; inactive = no such curve, though single readings can be large or run the other way;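 note: % of control where 0% means no effect; miR-21 action dims this reporter so a rising signal means less miR-21 action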
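Compounds were titrated across several concentrations (up to approximately 40 uM) and incubated 48 hours with HeLa miR-21-FLuc reporter cells (miR-21 target sequence downstream of FLuc, endogenous miR-21). Readout was firefly luciferase luminescence after lytic detection reagent.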
Rango-impB inh – prevents formation of the Rango-importin beta complex | Rango CFP/YFP FRET sensor + importin beta, 45 min | AID 540263 | Potency, µM (series often up to 92.2 µM), for inactives: at the top dose inhibition of complex formation | 340,000 tested, 0.031% active | Q14974; active = rising FRET ratio curve, often small or poorly fitted; inconclusive = mostly compound fluorescence or quenching in the first reads; inactive = flat curves in all reads;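 note: potency is the fitted concentration of half-maximal effect; 0% = DMSO wells and 100% = buffer wells lacking importin beta; nearly all actives have a fitted effect of over 15% in size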
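Inhibition scored from the CFP 486 nm/YFP 530 nm FRET ratio 45 min after adding 0.125 microM importin beta to 50 nM Rango biosensor preincubated 5 min with compound (room temperature, PBS with DTT, Tween-20, BSA). No-importin wells as positive control.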
Rango dissoc inh – inhibitors of RanGTP-induced Rango-importin beta complex dissociation; 340,000 tested, 0.071% active; O95149+P62826; Biochemical FRET Rango-importin beta, RanGTP-induced dissociation; Potency, µM (series often up to 46.1 µM), for inactives: at the highest dose activity change, negative = inhibition; AID 540253; active means falling FRET ratio curve, often poorly fitted, with flat reads before Ran was added; inconclusive means other falling curves, or compound fluorescence or quenching; inactive means flat or rising ratio curve;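 note: potency is the fitted concentration of half-maximal effect; % of control where 0% means no effect; nearly all actives have a fitted effect of over 45% in size; -100% = wells without RanGTP and RCC1; the record marks most hits as doubtful in a second field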
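Rango (0.1 uM)–importin beta (0.25 uM) complex; RanGTP-RCC1 trigger; 45 min RT; CFP/YFP FRET read.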
GLA inh pH 4.5 – blocks human alpha-galactosidase A at pH 4.5; P06280; purified enzyme, 4-MU-alpha-Gal fluorescence, pH 4.5; activity change, negative = inhibition, % at 105 µM; 230,000 tested, under 10 active; AID 1467; inconclusive = small, poorly fitted or top-dose-only inhibition, or a rising curve; inactive = flat fitted curve, though single readings scatter; no compound was filed as active;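 note: 0% = full activity with enzyme and -100% = basal without enzyme; dose as in the result columns while the protocol names 77 µM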
Target sequence (P06280 whole entry, looked up): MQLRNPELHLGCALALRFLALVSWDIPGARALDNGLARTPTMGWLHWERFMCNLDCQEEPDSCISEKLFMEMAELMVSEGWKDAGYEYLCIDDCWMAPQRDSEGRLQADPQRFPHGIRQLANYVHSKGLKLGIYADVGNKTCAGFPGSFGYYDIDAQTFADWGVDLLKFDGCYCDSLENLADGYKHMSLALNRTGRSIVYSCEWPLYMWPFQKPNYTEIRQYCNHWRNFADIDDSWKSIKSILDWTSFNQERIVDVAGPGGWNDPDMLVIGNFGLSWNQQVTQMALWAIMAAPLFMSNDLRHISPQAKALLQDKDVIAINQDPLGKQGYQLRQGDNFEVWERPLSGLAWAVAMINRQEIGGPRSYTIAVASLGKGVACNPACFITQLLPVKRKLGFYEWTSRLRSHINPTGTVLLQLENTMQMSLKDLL
Numbers without * were called inactive; ? = inconclusive; . = not tested or not shown; & = joins results of further samples. A portion of the library; rates above refer to the full screens.

| Molecule | GLA inh pH 4.5 | Rango dissoc inh | miR-21 FLuc | Rango-impB inh |
| --- | --- | --- | --- | --- |
| Cc1nnc(Cl)c2nn(-c3ccccc3)c(C)c12 | 4 | 7% | -5% | -3.2% |
| CC(C)(C)CC(C)(C)c1ccc(O)c(Cc2ccc(Cl)cc2Cl)c1 | 6 | -6% | . | 0.1% |
| CS(=O)(=O)c1ccc(Cl)c(NC(=O)CCN2C(=O)C3CC=CCC3C2=O)c1 (stereo not given) | . | -11% | . | -2.8% |
| COc1ccc(NC(=O)CN(C)C(=O)Cc2ccc3c(c2)OCCO3)cc1 | . | 0% | . | 0.4% |
| Fc1ccccc1CNCC1CCCO1 (stereo not given) | . | 2% | -6% | -1.2% |
| O=C(Cn1cnc2c(cnn2-c2ccc(Cl)cc2)c1=O)N1CCN(c2ccccc2)CC1 | -2 | 5% | 1% | 0.9% |
| O=C(NCC(c1ccco1)N1CCN(c2ccccc2F)CC1)C(=O)NC1CCCC1 (stereo not given) | . | 1% | . | -1.3% |
| CCOc1ccc(-n2nnc3c(=O)n(CC(=O)N4CCCc5ccccc54)cnc32)cc1 | 3 | -7% | -3% | -1.3% |
| CC(Oc1ccc(Cl)cc1Cl)C(=O)NC(Cc1ccccc1)C(=O)O (stereo not given) | . | -7% | . | -3.2% |
| O=C(Nc1ccc(C(F)(F)F)cc1)c1cc(-c2cccnc2)nc2ccc(Br)cc12 | -10 | -16% | -3% | 0.1% |
| COc1ccc(N=C2C(=Nc3ccc(OC)cc3)N(c3ccc(N(C)C)cc3)C(=S)N2c2ccc(OC)cc2)cc1 | 7 | 9% | -14% | -0.3% |
| Cc1cc(C)c(C(=O)COC(=O)c2cccnc2Cl)c(C)c1 | 5 | 6% | -16% | -0.6% |
| Nc1cc(N2CCOCC2)c(Cl)cc1[N+](=O)[O-] | 1 | -24% | 8% | -2.9% |
| COc1ccc(S(=O)(=O)Cc2ccc(C(=O)N3CCCC3)o2)cc1 | 0 | 19% | 2% | 2.7% |
| O=C(O)C(CO)(c1ccccc1)c1ccccc1 | . | 29% | 0% | 0.1% |
| Cc1cc(NC(=O)CSc2nc3cc(C(=O)NCCCOC(C)C)ccc3c(=O)n2Cc2ccco2)no1 | 3 | -13% | -5% | -2.4% |

4 entries picked at random from those above:
| Molecule | GLA inh pH 4.5 | Rango dissoc inh | miR-21 FLuc | Rango-impB inh |
| --- | --- | --- | --- | --- |
| CC(Oc1ccc(Cl)cc1Cl)C(=O)NC(Cc1ccccc1)C(=O)O (stereo not given) | . | -7% | . | -3.2% |
| Cc1cc(NC(=O)CSc2nc3cc(C(=O)NCCCOC(C)C)ccc3c(=O)n2Cc2ccco2)no1 | 3 | -13% | -5% | -2.4% |
| Nc1cc(N2CCOCC2)c(Cl)cc1[N+](=O)[O-] | 1 | -24% | 8% | -2.9% |
| COc1ccc(S(=O)(=O)Cc2ccc(C(=O)N3CCCC3)o2)cc1 | 0 | 19% | 2% | 2.7% |

Further entries:
| Molecule | GLA inh pH 4.5 | Rango dissoc inh | miR-21 FLuc | Rango-impB inh |
| --- | --- | --- | --- | --- |
| Cc1cc(C(=O)N2CCN(c3cc(Cl)ccc3C)CC2)on1 | . | -12% | 0% | 2.7% |
| Cc1c2cnn(CC(=O)N3CCOCC3)c(=O)c2c(C)n1Cc1ccccc1F | . | 20% | -7% | -0.9% |
| COc1cc(NS(=O)(=O)c2ccc(Br)cc2)c(OC)cc1NC(=O)c1ccco1 | -21 | 0% | 0% | 2.3% |
| CCOc1ccc(CNC(=O)C2CCN(S(=O)(=O)c3ccc4c(c3)CCCC(=O)N4)CC2)cc1 | . | 11% | 9% | 6.3% |
| Clc1cccc(-c2cc3nc4c(c(N5CCN(c6cnccn6)CC5)n3n2)CCCC4)c1 | -16 | 1% | -41% | 2.5% |
| O=C(COC(=O)CCC(=O)c1ccccc1)NCCc1ccccc1 | . | -1% | . | -0.5% |
| CC(C)(C)C(=O)COC(=O)CCc1nc2ccccc2[nH]c1=O | 9 | -13% | -1% | ? |
| COc1cc(OC)cc(C(=O)N[C@H](C(=O)NC23CC4CC(CC(C4)C2)C3)C(C)C)c1 | 2 | 8% | -1% | -2.0% |
| COc1ccc(N2CC(C(=O)Nc3nnc(SCC(=O)NC(C)(C)C)s3)CC2=O)cc1 (stereo not given) | -2 | 25% | -2% | 1.1% |
| Cc1nn(C)cc1CNC(=O)/C=C/c1cnn(C)c1 | 1 | -10% | -4% | -5.1% |
| COCCCNc1nc2cc(OC)c(OC)cc2c2nc(-c3ccccc3)nn12 | . | 1% | 4%&7% | -0.8% |
| CSc1nc(C(C)C)ccc1CNC(=O)CC(C)c1ccccc1 (stereo not given) | . | 24% | 6% | -0.3% |
| CCCCOc1nc2c(c(=O)n(C)c(=O)n2C)n1C | -4 | 3% | 5% | -2.8% |
| NC(=O)NC(CC(=O)N1CCc2ccccc2C1)c1ccc(Cl)cc1 (stereo not given) | . | 16% | 0% | 1.1% |
| CN1CCN(CCNC(=O)Cn2c(=O)c3cccn3c3ccc(F)cc32)CC1 | . | ? | 1% | ? |
| O=C(COc1ccc(Cl)cc1)NC1CC1 | . | -3% | -14% | -1.2% |
| O=C1CCCC2=C1C(c1ccccc1)C1C(=O)c3ccccc3C1=N2 (stereo not given) | 2 | -10% | 5% | -3.2% |
| CCC(CC)NC(=O)COC(=O)c1cccc(C)c1O | ? | 1% | -2% | -0.6% |
| CCCCn1c(N)c(N(CCC(C)C)C(=O)C2=NN(c3ccccc3)C(=O)CC2)c(=O)[nH]c1=O | . | 2% | . | ? |
| CCN(C[C@H]1N[C@@](CC)(C(=O)OC)[C@H]2C(=O)N(Cc3ccccc3)C(=O)[C@@H]12)C(=O)c1ccccc1 | . | -1% | . | 0.9% |
| COc1cccc(C(=O)N2CCN(S(C)(=O)=O)CC2)c1 | -12 | 0% | -2% | -4.0% |
| O=[N+]([O-])c1ccc(C=NN=Cc2ccc([N+](=O)[O-])cc2)cc1 | . | 24% | . | 2.7% |
| Cc1ccc(N=C2C(=O)Nc3ccc(C)c(Br)c32)cc1 | . | 29% | -13% | 2.3% |
| Cc1nc(N2CCN(c3ccccn3)CC2)c2c(C)c(C(=O)Nc3ccc(F)cc3Cl)sc2n1 | . | -17% | 1% | ? |
| CC1CN(c2nnc(NC(=O)c3ccccc3)s2)CC(C)O1 (stereo not given) | -14 | -1% | -29% | 3.2% |
| CCCCN(C(=O)CCNC(=O)NC12CC3CC(CC(C3)C1)C2)c1c(N)n(CCCC)c(=O)[nH]c1=O | . | -6% | . | -1.9% |
| CCOC(=O)c1csc(NC(=O)CSc2nnnn2-c2ccc(OCC)cc2)n1 | 0 | -1% | 1% | -4.2% |
| COCc1cc(C)nc(SCC(=O)Nc2cccc(C)c2)c1C#N | -1 | 1% | -5% | 5.1% |
| Cn1nc(C(=O)OCC(=O)c2ccc(Cl)cc2)c2ccccc2c1=O | . | -10% | . | -8.1% |
| Nc1nnc(SCC(=O)OCC(=O)c2ccccc2)s1 | 8 | -6% | 2% | 2.1% |
| CN(CC(=O)Nc1ccc(Cl)cc1)C(=O)c1ccc(N2CCCC2=O)cc1 | . | -9% | . | -4.7% |
| CCC(C(=O)NCCCN1CCN(C)CC1)n1nc(C)n2c(cc3occc32)c1=O (stereo not given) | . | 7% | 0% | -2.1% |
| C[C@@H](C(=O)Nc1ccc2ccccc2c1)[C@H]1C[C@]1(C)[C@H](NC(=O)c1cccnc1)c1ccccc1 | -2&-10 | ? | 26% | 2.3% |
| CCCCCN(C(=O)NC(=O)Nc1ccccc1C)S(C)(=O)=O | -4 | 18% | -5% | 2.5% |
| O=C(COC(=O)c1ccc[nH]c1=O)NCC1CCCO1 (stereo not given) | 7 | -3% | -7% | 2.3% |
| Cn1cnc2c(=O)[nH]cc([N+](=O)[O-])c21 | 3 | -9% | -11% | 3.6% |
| CCCCSc1nc2[nH]ncc2c(=O)[nH]1 | 2 | 0% | -2% | -2.3% |
| Cc1ccc(S(=O)(=O)NCCC(=O)NCc2ccc3c(c2)OCO3)cc1C | -5 | -4% | -1% | -5.7% |
| CCOC(=O)c1c(C)nc2c(c(SC)nn2-c2ccccc2)c1N | 9 | 9% | 2% | -1.4% |
| Cc1ccc(NC=C(S(=O)(=O)c2ccccc2)S(=O)(=O)c2ccccc2)cc1 | -3 | -8% | 0% | -1.4% |
| Cc1cc(C)cc(NC(=S)/C(=C(\[O-])c2ccc(Cl)s2)[n+]2cccc(C)c2)c1 | -5 | 13% | -4% | -1.5% |
| Cc1ccc(S(=O)(=O)N(C)c2cc(S(=O)(=O)N3CCC(C)CC3)c(C)cc2C)cc1 | 0 | -3% | 21% | 2.3% |
| Clc1cccc(Cl)c1-c1nnc2cccc(Cl)n12 | -5 | 0% | -3% | 0.4% |
| Cc1ccc(NC(=O)CN(C)C(=O)CSc2ccc3c(c2)OCCO3)cc1 | . | -8% | . | -0.1% |
| C#CCNC(=O)C1=C[C@@H](C2CC2)C[C@@H](OCCCCO)O1 | -6 | 0% | -2% | -3.7% |
| O=C(CNC(=O)c1sc2ccccc2c1Cl)NCc1cccc(C(F)(F)F)c1 | . | 14% | . | ? |
| Cc1cc2c(OCC(O)CNC(C)(C)C)cccc2[nH]1 (stereo not given) | 9 | -3% | -8% | -0.6% |
| COc1cc([C@@H]2CC=C(C(=O)O)[C@H](c3ccccc3F)N2S(=O)(=O)c2ccc(C)cc2)cc(OC)c1OC | . | 1% | . | 4.4% |
| CC(=O)NC(C)C12CC3CC(CC(CC(=O)O)(C3)C1)C2 (stereo not given) | 4 | 4% | 0% | -1.0% |
| CCN1C(=NCC2CC2)N[C@@H](c2ccccc2)C(C(=O)OC)=C1C | . | -5% | 0% | -0.9% |
| CC(C)=CC(=O)NCCc1ccccc1 | 0 | 16% | -22% | 2.0% |
| COc1ccc(S(=O)(=O)N2CCC(c3cc(-c4cccc5ccccc45)n[nH]3)CC2)cc1 | ? | -1% | 14% | 0.1% |
| CC(=O)c1cccc(NC(=O)c2cccc(S(=O)(=O)N3CCOCC3)c2)c1 | . | 1% | 2% | 1.7% |
| O=C(CSCc1ccc(Cl)cc1)Nc1ccc(O)cc1C(=O)O | . | 8% | 2% | -3.3% |
| COC(=O)c1ccccc1NC(=O)c1cc[n+](C)cc1 | . | -1% | . | -1.4% |
| O=C(CCN1C(=O)C2C3C=CC(C3)C2C1=O)Nc1ccc(F)cc1 (stereo not given) | 7 | 7% | -7% | 2.9% |

Other results follow:
| Molecule | GLA inh pH 4.5 | Rango dissoc inh | miR-21 FLuc | Rango-impB inh |
| --- | --- | --- | --- | --- |
| CC(=O)c1nnn(-c2c(F)cccc2F)c1C | -11 | -16% | -25% | -1.9% |
| COc1ccccc1CN(C(=O)CNC(=O)c1ccco1)C(C(=O)NCC1CCCO1)c1ccc(OC)c(OC)c1 (stereo not given) | . | 9% | 1% | 0.6% |
| OCCCCc1nccc2c1[nH]c1ccccc12 | 10 | 1% | 1% | 0.4% |
| CCOC(=O)N1CCC(NC(=O)CS(=O)(=O)Cc2nc(-c3ccccc3Cl)oc2C)CC1 | . | 3% | 9% | -0.1% |
| CCn1c(SCC(=O)N2CCN(C(=O)c3ccco3)CC2)nnc1C(C)C | -1 | -1% | 0% | ? |
| COC(=O)c1ccc(NC(=S)Nc2ccccc2)cc1 | 0 | -14% | -8% | 3.3% |
| CCOC(=O)c1cc(-c2csc(COc3ccccc3)n2)on1 | -3 | -2% | 1% | -2.3% |
| Cc1cc(C)cc(NC(=O)COC(=O)Cn2cnc3c2c(=O)n(C)c(=O)n3C)c1 | . | 11% | . | -0.1% |
| COCC(C)n1c(SCC(=O)NCCC2=CCCCC2)nc2ccccc2c1=O (stereo not given) | 2 | -1% | -2% | -0.7% |
| NS(=O)(=O)c1ccc2nc(NC(=O)CS(=O)(=O)c3ccccc3)sc2c1 | . | -12% | -4% | 0.0% |
| COc1cc(/C=C2\SC(=O)N(c3cccc(Cl)c3)C2=O)cc([N+](=O)[O-])c1O | -2 | 1% | 0% | ? |
| CCc1nc(N2CCN(S(C)(=O)=O)CC2)c2c3c(sc2n1)CCCC3 | -4 | 0% | 2% | 2.6% |
| CCN(CC(=O)NCc1cccs1)CC(=O)Nc1ccc(C(N)=O)cc1 | . | 0% | . | -2.2% |
| CCC(=O)Nc1ccc(C(=O)NNC(=O)c2cccs2)cc1 | 1 | 1% | -5% | -1.0% |
| Cc1ccc(NS(=O)(=O)c2c(C(=O)N3CCOCC3)c(C)n(C)c2C)cc1 | . | 6% | -2% | -1.9% |
